# ALR H2O2 inh = blocks human ALR sulfhydryl oxidase activity; hit rate 3.8% among 290,000; inhibition, % (test concentration not listed); AID 485317; P55789; purified ALR, DTT oxidation, H2O2 HRP-luminol luminescence;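 active = mean and each replicate at 75% or more; inconclusive = only one of the two met; inactive = neither met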;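 note: stock transfer was 7.5 nL into about 7.5 µL; 0% = neutral wells and 100% = wells with inactivated enzyme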
# HNF4A DNA FP = change in binding of human HNF4 alpha to DNA; P41235; HNF4a-FITC DNA binding, fluorescence polarization, 1 h; activity change, % at 10 µM; hit rate 0.3% among 360,000; AID 1224865; in the data active = activity change above about 30%, passing the limit was not always enough;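 note: controls were the assay level and a saturating level of protein; the project sought stronger binding though the title names inhibitors; some compounds called inactive have numbers as strong as hits; positive values seem to mean higher polarization but the record does not say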
# UCH37 DUB inh = inhibitors of human deubiquitinating enzyme UCH37; AID 588478; purified proteasome/UCH37, Ub-AMC cleavage fluorescence; inhibition, % (no concentration beside the values); hit rate 0.33% among 330,000;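 active = mean of two replicates above 20%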;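 note: 0% = compound-free wells with enzyme and 100% = wells lacking proteasome; stock transfer was 100 nL into about 20 µL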
# Target sequence (Q9Y5K5 whole entry, looked up): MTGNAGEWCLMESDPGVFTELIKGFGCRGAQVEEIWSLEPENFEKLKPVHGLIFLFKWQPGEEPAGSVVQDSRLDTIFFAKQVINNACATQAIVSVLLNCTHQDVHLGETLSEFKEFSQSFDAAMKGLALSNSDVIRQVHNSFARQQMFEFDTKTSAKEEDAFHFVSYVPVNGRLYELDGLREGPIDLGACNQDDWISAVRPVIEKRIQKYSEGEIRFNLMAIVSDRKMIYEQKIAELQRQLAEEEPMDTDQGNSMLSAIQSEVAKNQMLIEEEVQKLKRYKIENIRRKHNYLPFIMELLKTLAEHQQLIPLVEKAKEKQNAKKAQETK
#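 Signal – fluorescence, ex 355 nm, em 460 nm · System – Proteasome-bound UCH37 · Input – 0.15 nM proteasome as dispensed · Timing – 30 min preincubation with enzyme, 25 min cleavage at room temperature · Read-out basis – percent inhibition of cleavage signal versus uninhibited and no-proteasome wells · Medium – Tris-HCl pH 7.4 with ATP-MgCl2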
# E coli growth = inhibitors of Escherichia coli growth. OD600, 23 h; stronger effect = lower value. OD600 absorbance (no concentration beside the values). hit rate 0.21% among 330,000. AID 1053175;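 active = OD600 absorbance below the run mean of sample wells minus 3.6 SD, in any replicate, cut at about 0.56 in these data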;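 note: stock transfer was 300 nL into about 60 µL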
# B2AR ag = agonists of human beta-2 adrenergic receptor inducing internalization. P07550. response, % (test concentration not listed). Am2.2-beta2AR cells, FAP receptor internalization, flow cytometry; reference of the scale not given here. AID 504454. hit rate 0.43% among 340,000;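 active = response above a set limit, near 3 SD of response in nonfluorescent compounds, cut at about 42% in these data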;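 note: stock transfer was 100 nL into about 11 µL; a reference agonist was the positive control; negative values mostly stem from fluorescent compounds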
# Target sequence (P07550 whole entry, looked up): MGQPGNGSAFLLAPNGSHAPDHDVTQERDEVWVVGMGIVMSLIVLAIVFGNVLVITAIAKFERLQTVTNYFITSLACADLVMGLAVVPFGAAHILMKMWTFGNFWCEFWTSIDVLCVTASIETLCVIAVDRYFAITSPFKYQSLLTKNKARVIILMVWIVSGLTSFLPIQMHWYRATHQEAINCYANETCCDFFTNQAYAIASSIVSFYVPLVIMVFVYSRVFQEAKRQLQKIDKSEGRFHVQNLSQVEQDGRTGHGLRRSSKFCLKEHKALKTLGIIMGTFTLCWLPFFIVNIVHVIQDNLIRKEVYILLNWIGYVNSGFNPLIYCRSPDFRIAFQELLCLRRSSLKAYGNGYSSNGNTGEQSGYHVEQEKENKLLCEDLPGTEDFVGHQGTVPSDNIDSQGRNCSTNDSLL
# FGF22 binding = FGF22 (human) thermal shift binding. Q9HCT0. recombinant FGF22 thermal shift, SYPRO orange fluorescence; percent of sucrose octasulfate shift, DMSO zero. calls only at 9.99 µM. hit rate 1.5% among 340,000. AID 651658;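 active = melting point raised past a set limit in the mean and every replicate; inconclusive = no clear call; three in four hits are not shown here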
# Target sequence (Q9HCT0 whole entry, looked up): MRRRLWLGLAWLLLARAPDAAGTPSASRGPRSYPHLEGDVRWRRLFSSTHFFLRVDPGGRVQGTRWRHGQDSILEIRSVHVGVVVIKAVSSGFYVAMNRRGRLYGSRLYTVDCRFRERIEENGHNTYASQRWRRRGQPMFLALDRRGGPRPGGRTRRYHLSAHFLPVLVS
# LANA-H2A inh = blocks KSHV LANA binding to histone H2A/H2B; cell-free LANA-H2A/H2B peptide, fluorescence polarization; inhibition, % (test concentration not listed); hit rate 0.6% among 320,000; AID 2629; in the data active = inhibition mostly above about 10%, no sharp cut-off; inactive = mostly below about 6.7%;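 note: stock transfer was 7.5 nL into about 10 µL; 0% = median of vehicle wells and 100% = median of positive control wells; one replicate is shown; the record names a cut of 25% in any replicate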
# * hit, by the source's call; i = inactive; ? = inconclusive; nt = not tested or not shown. This is a subset (hit frequency here may not be typical).
SMILES,ALR H2O2 inh,HNF4A DNA FP,UCH37 DUB inh,E coli growth,B2AR ag,FGF22 binding,LANA-H2A inh
Cc1cccc(NC(=O)C2CCN(c3nccc(C)n3)CC2)c1,-4,-4.5,-3.7,0.72,2,nt,0.8
COc1ccc(NCc2nnc(SCC(=O)N3CCCc4ccccc43)o2)cc1,-12,7.7,4.3,0.73,33,nt,-0.8
Nc1nc(-c2ccco2)nc(N2CCCCC2)n1,-4,-1.7,-1.0,0.67,-4,nt,1.5
COc1cc(/C=C/C(=O)OCC(=O)NC(=O)NC(C)C)ccc1O,99*,1.2,-15,0.69,0,i,6.2
COc1ccc(C2=NO[C@@](CC(=O)O)(C(=O)Nc3ccc4c(c3)OCCO4)C2)cc1,-32,2.2,6.0,0.64,-3,i,-2.9
COc1ccc(N=Nc2cc(-c3ccccc3)ccc2O)cc1,-6,-0.5,8.1,0.73,-6,i,1.4
CCOC(=O)C1(C)/C(=N/Nc2cccc(Cl)c2)C(=O)C(=O)N1c1ccccc1 (stereo unspecified),nt,2.2,-3.0,0.74,4,nt,0.2
CCOC(=O)c1cnc2ccc(C)cc2c1Sc1ccccc1,nt,4.4,0.1,0.7,-3,nt,4.3
CC(NC(=O)c1cc([N+](=O)[O-])cc([N+](=O)[O-])c1)C1CC2CCC1C2 (stereo unspecified),nt,-3.2,-0.9,0.66,-9,i,1.6
C[N+](C)(CC#Cc1ccccc1)CC(=O)c1ccccc1,-20,1.8,2.1,0.68,-1,nt,4.7
O=C(CN1CCN(c2ccccc2)CC1)N/N=C/c1cccc(F)c1,26,0.9,nt,nt,1,nt,0.3
Cc1cccc(C)c1NC(=S)/N=C/N(C)C,1,-1.9,nt,nt,10,i,0.6
CC(C)NC(=O)CSc1nnc(CNC(=O)OC(C)(C)C)n1C,-3,2.1,2.5,0.7,4,i,-1.6
COCC(C)OC(=O)c1c(N)n(CC(C)C)c2nc3ccccc3nc12 (stereo unspecified),1,4.2,i,0.66,-11,nt,-5.7
O=C(NNC(=S)NCc1ccco1)c1ccc(Cl)s1,10,0.5,0.6,0.66,4,nt,-8.2
CCN(CC)CCN1C(=O)C(=O)/C(=C(/O)c2cnn(-c3ccccc3)c2C)C1c1cccnc1 (stereo unspecified),0,-0.6,14,0.7,3,nt,2.9
CC(Oc1ccccc1)C(=O)Nc1ccc(F)c(S(=O)(=O)N2CCOCC2)c1 (stereo unspecified),nt,1.4,-4.1,0.64,-4,i,nt
Cc1ccc(S(=O)(=O)NCCCN(C)C)cc1,-9,2.1,1.1,0.74,2,nt,0.0
Cc1ccnc(NC(=O)CNC(=O)Cc2cccc3ccccc23)c1,-25,3.6,1.7,0.68,6,i,-0.1
Cc1ccc(C)c(NC(=O)c2nnn(Cc3ccccc3)c2N)c1,0,2.6,1.4,0.68,0,nt,2.8
CCc1cccc(NS(=O)(=O)c2ccc3c(c2)N(C)CCO3)c1,7,-4.7,0.0,0.65,3,i,-2.5
Cc1ccc2c(c1)C1CN(C)CCC1N2C(=S)NC(=O)c1ccc(Cl)cc1Cl (stereo unspecified),10,1.5,4.3,0.66,-7,i,2.6
OC1(c2ccc3ccccc3c2)CCN(Cc2ccccc2)C1 (stereo unspecified),-14,0.8,2.4,0.78,-3,nt,-0.9
Cc1c(C(C)(C)O)[nH]c2cc(C(F)(F)F)ccc12,3,-0.3,-0.9,0.66,5,i,-0.8
CCN1C(=O)c2cccc3c(S(=O)(=O)Nc4c(C)n(C)n(-c5ccccc5)c4=O)ccc1c23,3,0.6,3.7,0.78,-2,nt,-0.2
Cn1ccnc1SCC(=O)Nc1nc2c(F)c(F)c(F)cc2s1,-1,0.5,1.9,0.67,-1,i,-1.1
Cc1ccc(SCc2c(C(=O)N/N=C/c3ccoc3)nnn2-c2nonc2N)cc1,-5,3.8,nt,nt,-7,i,-1.7
Cc1cccc(/C=C2\CCC(=C3SCCCS3)C2=O)c1,0,2.8,-0.6,0.74,8,nt,4.9
N/C(=N\OC(=O)c1ccc(Cl)cc1Cl)c1ccccn1,1,-1.1,-0.8,0.68,-7,nt,-0.5
O=C(O)C1(c2ccccc2)CCN(S(=O)(=O)c2ccc(F)c(F)c2)CC1,-1,-0.9,1.1,0.68,9,i,5.4

# A few values from the results shown.
# Reading of Cc1ccc(S(=O)(=O)NCCCN(C)C)cc1 under LANA-H2A inh: 0.0
# Reading of COCC(C)OC(=O)c1c(N)n(CC(C)C)c2nc3ccccc3nc12 (stereo unspecified) under ALR H2O2 inh: 1

# One compound at a time, as listed above:
# Results for Cc1ccc2c(c1)C1CN(C)CCC1N2C(=S)NC(=O)c1ccc(Cl)cc1Cl (stereo unspecified) = ALR H2O2 inh = 10; HNF4A DNA FP = 1.5; UCH37 DUB inh = 4.3; E coli growth = 0.66; B2AR ag = -7; FGF22 binding = i; LANA-H2A inh = 2.6
# Results for OC1(c2ccc3ccccc3c2)CCN(Cc2ccccc2)C1 (stereo unspecified) = ALR H2O2 inh = -14; HNF4A DNA FP = 0.8; UCH37 DUB inh = 2.4; E coli growth = 0.78; B2AR ag = -3; FGF22 binding = nt; LANA-H2A inh = -0.9
# Results for Cc1ccnc(NC(=O)CNC(=O)Cc2cccc3ccccc23)c1 = ALR H2O2 inh = -25; HNF4A DNA FP = 3.6; UCH37 DUB inh = 1.7; E coli growth = 0.68; B2AR ag = 6; FGF22 binding = i; LANA-H2A inh = -0.1

# Further results
SMILES,ALR H2O2 inh,HNF4A DNA FP,UCH37 DUB inh,E coli growth,B2AR ag,FGF22 binding,LANA-H2A inh
NS(=O)(=O)c1ccc(NNC(=O)c2cccs2)cc1,0,-1.0,6.2,0.68,-2,i,-0.6
COc1ccc(C(=O)CSC#N)cc1OC,99*,-3.4,16,0.73,21,i,1.4
CCOC(=O)c1c(C)[nH]c(C(=O)COC(=O)CSC)c1C,nt,1.1,1.3,0.69,4,nt,0.7
Cc1ccc(NC(=O)c2cc3c(s2)CCCC3)cc1S(=O)(=O)Nc1ccccc1Cl,-6,0.9,-3.3,0.68,10,nt,-7.7
CC1=CSC2=NS(=O)(=O)CCN12,-2,4.4,1.0,0.69,1,i,2.5
CCN(CC(=O)Nc1c(F)cccc1F)C(=O)Cc1ccc(OC)c(S(=O)(=O)N2CCOCC2)c1,-12,3.4,3.9,0.69,6,i,-5.1
O=C(NCCc1cccnc1)c1cc(COc2ccc(F)cc2F)on1,1,1.0,4.3,0.68,-5,i,-2.0
O=c1c2ccccc2oc2cc(C#CC3(O)CCCCC3)ccc12,0,3.5,-0.6,0.62,2,i,-3.5
COc1ccc(-n2nc(C(=O)NCC(=O)N3CCC(C)CC3)c3ccccc3c2=O)cc1,6,3.4,2.7,0.7,-2,i,-4.1
O=C(COC(=O)/C=C/c1ccc(OC(F)F)cc1)NC(=O)NCc1ccccc1,0,-2.6,6.4,0.71,-5,i,-0.4
O=c1c2ccccc2nnn1CSc1ccccc1F,2,5.0,-0.5,0.68,-9,nt,-6.6
O=C(Cn1ccccc1=S)c1ccc(Cl)c(Cl)c1,24,-1.4,5.2,0.62,-2,i,-4.3
CCc1nccn1CCC(=O)N1CCCC(N2CCN(c3cccc(Cl)c3)CC2)C1 (stereo unspecified),?,4.0,-0.6,0.69,-4,i,0.4
C#Cc1ccc([C@@H]2C=C(C(=O)NCc3ccccc3)O[C@H](OCc3ccc(CO)cc3)C2)cc1,-12,0.7,2.1,nt,7,i,-3.5
O=P(Cc1ccncc1)(c1ccccc1)c1ccccc1,0,4.6,3.8,0.67,-5,nt,-4.8
O=C(COC(=O)CN1C(=O)C2CCCCC2C1=O)Nc1c(Cl)cccc1Cl (stereo unspecified),-3,-3.0,-1.1,0.68,10,i,5.2
CC(C)c1ccc(N2CCN(C(=O)c3ccccc3NC(=O)/C=C\C(=O)O)CC2)cc1,28,0.4,4.4,0.75,3,nt,0.1
Cn1c(=O)c2ncn(CC(=O)NCCOCc3ccccc3Cl)c2n(C)c1=O,-13,-3.4,-1.1,0.68,-2,nt,4.4
CCOC(=O)c1cnc2c(C#N)cnn2c1N,4,8.9,-3.4,0.73,0,i,-1.5
CCCn1c(SCC(=O)NNC(=O)c2ccc(C)cc2)nnc1C(C)C,0,-0.4,2.7,0.66,-2,i,2.6
CCOC(=O)C1CCN(C(=O)c2c(C)oc3c2C(=O)c2ccccc2C3=O)CC1,-31,0.1,5.9,0.71,3,i,-4.0
COc1ccc(NC(=O)CCC(=O)N(Cc2ccc(OC)c(OC)c2)c2nccs2)c(OC)c1,-6,5.6,-0.7,0.71,39,i,2.7
CCC(=O)N1c2ccc(S(=O)(=O)NCc3ccccc3)cc2CC1C (stereo unspecified),0,-0.8,2.9,0.71,-8,i,2.9
CC(=O)Nc1ccc(N2C(=O)CC(N3CCSCC3)C2=O)cc1 (stereo unspecified),-2,-0.1,2.3,0.66,6,i,-3.5
Cc1ncc([N+](=O)[O-])n1CC(=O)Nc1ccccc1F,6,1.1,nt,nt,6,i,3.9
CCC(=O)N1CCc2cc(S(=O)(=O)CCC(=O)NCc3ccco3)ccc21,-27,-2.2,2.3,0.7,-12,i,0.6
N#CCC(=O)Nc1ccc(C(=O)OCC(=O)C23CC4CC(CC(C4)C2)C3)cc1,nt,3.6,-0.5,0.68,1,i,-1.3
CCOc1ccccc1C(=O)NCC(=O)NCCSc1ccc(Br)cc1,nt,2.7,0.5,0.68,-2,i,nt
COCCn1c(SCC(=O)Nc2cccc(S(N)(=O)=O)c2)nc2cc(Cl)ccc2c1=O,-1,-2.3,-0.2,0.69,0,i,0.1
COc1ccc(-n2ncc3c2CC(C)(C)CC3NC(=O)CCc2c(C)nn(C)c2C)cc1 (stereo unspecified),8,1.2,-1.8,0.67,-1,i,-3.2
COc1cccc(-c2ccc3ncnc(NCc4ccc5c(c4)OCO5)c3c2)c1,1,-0.6,0.2,0.74,2,i,-0.6
COc1ccc([C@H]2CC(=O)C=C(c3ccc(Cl)cc3C)C2)cc1,-1,0.6,6.1,nt,-4,i,1.6
CC(=O)c1c(N2CCN(Cc3ccccc3)CC2)[nH]c(-c2ccccc2)nc1=S,-12,6.8,7.3,0.74,-3,nt,10
O=C(CC1SC(=Nc2ccc(OC(F)F)cc2)N(CCC2=CCCCC2)C1=O)Nc1ccccc1F (stereo unspecified),1,-0.9,1.6,0.69,3,i,-2.7
CCOC(=O)C[n+]1ccc2c([nH]c3ccccc32)c1C,-32,-6.5,i,0.58,4,i,-0.5
CN(C)S(=O)(=O)c1ccc(NC(=O)c2ccc(Br)o2)cc1,-1,-6.3,5.6,0.64,10,nt,-2.3
CN(C)c1ccc(C(=O)c2ccccc2)cc1,10,-3.5,4.3,0.65,1,nt,-3.1
Cc1ccc(Nc2ccc([N+](=O)[O-])cn2)cc1Cl,-5,1.3,-0.9,0.64,-5,i,1.1
CC(C)N(C(=O)[C@H]1C[C@H](CC(=O)NCCCN(C)C)C(=O)N2CCc3c([nH]c4cc(CCC(=O)N(C)C)ccc34)[C@]12C)C(C)C,nt,2.3,0.3,0.68,0,i,nt
C=CCn1c(-c2ccc(OC)cc2)nc2ccccc21,7,0.9,-1.4,0.67,-5,nt,2.0
Cc1cc(C)c(S(=O)(=O)Nc2ccccc2)c(C)c1,nt,2.4,2.6,0.68,-8,i,nt
CCOC(=O)c1sc2nc(C)nc(SCC(=O)NC3CCS(=O)(=O)C3)c2c1C (stereo unspecified),2,5.8,nt,nt,-569,i,-3.7
O=C(CSc1nnc(-c2ccncc2)n1-c1ccc(F)cc1)NNC(=O)c1cccc(O)c1,nt,0.5,4.2,0.7,-4,i,nt
COc1ccc(C2Nc3ccccc3C(=O)N2c2ccc(F)cc2)cc1Cn1nnc2ccccc21 (stereo unspecified),4,-0.5,-65,0.69,2,nt,1.0
COc1cccc(-c2nnc(NC(=O)c3cccs3)s2)c1,1,3.4,-0.2,0.71,-6,i,1.6
